GIV-Gai inh – GIV-Galpha-i interaction inhibition. P08753. Galpha-i3/FITC-GIV peptide fluorescence polarization, 90 min; active compounds read low; scaled: aluminum fluoride 0%, vehicle 100%. percent of control (FP), % (test concentration not listed). hit rate 0.42% among 210,000. AID 1224905;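 active means replicate mean at 85% of control or lower, very high polarization wells dropped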;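 further: lower values mean more displacement of the GIV peptide from Galpha-i3; wells of about 15 µL received 100 nL stock; the first replicate is given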
Target sequence (P08753 whole entry, looked up): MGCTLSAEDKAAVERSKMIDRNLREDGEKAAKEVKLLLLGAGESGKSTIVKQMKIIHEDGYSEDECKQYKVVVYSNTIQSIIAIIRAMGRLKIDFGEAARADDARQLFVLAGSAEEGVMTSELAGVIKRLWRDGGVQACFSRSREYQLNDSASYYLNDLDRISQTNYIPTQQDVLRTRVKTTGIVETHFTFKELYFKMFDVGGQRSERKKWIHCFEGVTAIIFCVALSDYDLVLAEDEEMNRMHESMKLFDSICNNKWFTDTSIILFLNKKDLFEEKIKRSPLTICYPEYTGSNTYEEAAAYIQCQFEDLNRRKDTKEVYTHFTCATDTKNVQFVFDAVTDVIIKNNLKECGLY
HCMV UL50-53 inh – disrupts HCMV UL50-UL53 complex binding; HTRF UL50-UL53 interaction, normalized percent inhibition; inhibition, % (test concentration not listed); hit rate 0.15% among 190,000;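 active means both replicates at 50% or more, plus weaker picks with an unusually low signal ratio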;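 further: stock transfer was 100 nL into about 20 µL; 0% = negative control wells and 100% = wells with untagged competitor protein; inactives centre near -12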
Sa growth 42C – inhibitors of Staphylococcus aureus growth at 42 °C. relative growth, % (concentration not given with the values). AID 720641. hit rate 0.53% among 170,000. S. aureus RN4220 growth, OD600, 20 h; active compounds read low;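 active means growth at 42 °C up to 50% and 20 or more points under that at 30 °C, or under 10% at both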;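 further: 300 nL library stock went into each well; scaled to the means of positive and negative controls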
Sa growth 42C second temp – recorded beside Sa growth 42C, whose call it bears; relative growth, %; measured here: growth at 30 °C;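 optical density after 20 h as mean of two plates; 100% = untreated growth and lower means inhibition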
An asterisk follows results filed as active; . = no result given.

SMILES	GIV-Gai inh	HCMV UL50-53 inh	Sa growth 42C	Sa growth 42C second temp
Cc1ccc(Cn2ccnc2SCC(=O)Nc2nnc(C)s2)cc1	99	.	82	92
CCc1ccccc1N(C)S(=O)(=O)c1ccc(-c2cc(C)no2)s1	102	-41	79	83
CCOc1ccc(CNCCCSc2nnnn2C)cc1OC	101	-36	100	86
COc1cc(OC)nc(C(=O)c2ccc(Cl)cc2)n1	.	-12	102	99
Cn1ccnc1C(N)c1ccccc1 (configuration not stated)	.	2	107	95
O=C(Nc1cccc(NC(=O)c2cccc(S(=O)(=O)N3CCCCC3)c2)c1)c1ccc([N+](=O)[O-])cc1	101	-14	.	.
CCCC(=O)N1CCN(c2nc3cc(Br)ccc3n3cccc23)CC1	103	21	.	.
CCOC(=O)c1ccc(Oc2nc(N(C)C)nc(N(C)C)n2)cc1	104	-14	.	.
Oc1ccc2oc3c(c2c1C=Nc1ccccc1)CCCC3	.	-21	115	93
N#Cc1ccccc1Sc1ccccc1C(=O)NN1C(=O)NC2(CCCCC2)C1=O	.	-26	86	89
c1ccc(C2NCCc3sccc32)cc1 (configuration not stated)	98	-22	107	91
COc1cc(NC(=O)CSc2nc(-c3ccc(C(C)C)cc3)no2)cc(OC)c1	100	.	104	91
C(=N\n1c(-c2cc3ccccc3o2)csc1=NCC1CCCO1)/c1ccc2c(c1)OCCO2 (configuration not stated)	.	-15	98	87
Cc1nn(C)c(C)c1CCN(C)C(=O)Nc1ccc(Br)cc1F	105	9	.	.
O=C1c2ccccc2C(=O)N1Nc1ccc(N2CCOCC2)cc1	97	-39	94	89

Brought forward from above: 4 entries, followed by the next part.
SMILES	GIV-Gai inh	HCMV UL50-53 inh	Sa growth 42C	Sa growth 42C second temp
COc1cc(NC(=O)CSc2nc(-c3ccc(C(C)C)cc3)no2)cc(OC)c1	100	.	104	91
C(=N\n1c(-c2cc3ccccc3o2)csc1=NCC1CCCO1)/c1ccc2c(c1)OCCO2 (configuration not stated)	.	-15	98	87
Cc1nn(C)c(C)c1CCN(C)C(=O)Nc1ccc(Br)cc1F	105	9	.	.
O=C1c2ccccc2C(=O)N1Nc1ccc(N2CCOCC2)cc1	97	-39	94	89
O=C(Nc1ccc2c(c1)OCO2)c1ccc(Nc2cc(-c3ccccc3)ncn2)cc1	102	8	.	.
COc1cc(OC)cc(C(=O)OCC(=O)c2cc3ccccc3o2)c1	.	-14	100	96
CCOc1ccc(NC(=O)CSc2nc3nc(C)c(Cc4ccccc4)c(C)n3n2)cc1	105	.	120	82
C=CCn1c(=S)sc2c(=O)n(CCOc3cccc(Br)c3)cnc21	.	-24	94	90
O=C(Nc1cc(-c2nc3cc(Cl)ccc3o2)ccc1Cl)c1cc([N+](=O)[O-])ccc1N1CCOCC1	106	-16	99	94
CC(NC(=O)Cc1ccccc1)C(c1ccccc1)N1CCOCC1 (configuration not stated)	.	-9	100	93
CCCCSc1nnc2c(n1)OC(c1cccc(OC)c1OC)N(C(C)=O)c1ccccc1-2 (configuration not stated)	103	-80	.	.
CCOc1ccc(CNC(=O)C2CCN(c3nc4ccccc4n4c(C)nnc34)CC2)cc1OC	103	-17	95	88
COc1ccc(CN2C(=O)N(c3ccc(F)cc3)C(=O)C2CC(=O)Nc2ccccc2)cc1 (configuration not stated)	98	-18	93	84
CS(=O)(=O)c1ccc(-c2csc(-c3ccc(-c4csnn4)cc3)n2)cc1	103	27	95	82
O=C(c1ccc2nc3ccccc3c(=O)n2c1)N1CCN(c2ccc(Cl)cc2)CC1	103	.	112	86
C(#Cc1ccccc1)CN1CCN(C(c2ccccc2)c2ccccc2)CC1	.	0	88	76
COc1cccc(CNC(=O)C2CCN(S(=O)(=O)c3ccccc3)CC2)c1	.	-37	94	88
Cc1cc(=O)n(C)c(=O)n1CCN(C)C	102	7	89	95
CCOC(=O)C1CCCN(S(=O)(=O)c2cc(-c3ccc(=O)[nH]n3)ccc2CC)C1 (configuration not stated)	103	-55	.	.

Some of the entries above in a different format.
structure: C(=N\n1c(-c2cc3ccccc3o2)csc1=NCC1CCCO1)/c1ccc2c(c1)OCCO2 (configuration not stated)
  GIV-Gai inh = .	HCMV UL50-53 inh = -15	Sa growth 42C = 98	Sa growth 42C second temp = 87
structure: Cc1nn(C)c(C)c1CCN(C)C(=O)Nc1ccc(Br)cc1F
  GIV-Gai inh = 105	HCMV UL50-53 inh = 9	Sa growth 42C = .	Sa growth 42C second temp = .
structure: O=C1c2ccccc2C(=O)N1Nc1ccc(N2CCOCC2)cc1
  GIV-Gai inh = 97	HCMV UL50-53 inh = -39	Sa growth 42C = 94	Sa growth 42C second temp = 89
structure: O=C(Nc1ccc2c(c1)OCO2)c1ccc(Nc2cc(-c3ccccc3)ncn2)cc1
  GIV-Gai inh = 102	HCMV UL50-53 inh = 8	Sa growth 42C = .	Sa growth 42C second temp = .

Other compounds follow.
SMILES	GIV-Gai inh	HCMV UL50-53 inh	Sa growth 42C	Sa growth 42C second temp
Cc1c(C(N)=O)sc2nc[nH]c(=O)c12	.	-11	89	90
Cc1ccc(S(=O)(=O)Nc2cc3c(cc2C)n(C)c(=O)c(=O)n3C)c(C)c1	101	.	92	68
C=CCN(C(=O)Cn1ncc2c(=O)oc3ccccc3c21)c1ccccc1	97	1	.	.
COCCNC(=O)c1cc2nc3c(c(C(F)(F)F)n2n1)CCc1ccccc1-3	103	-4	108	112
CC1(C)CC(=O)C2=C(C1)NC1=C(C(=O)CC(C)(C)C1)C2c1cccc(O)c1	98	-39	87	71
CCOC(=O)c1[nH]c(C)c(C(=O)NCc2ccc(F)cc2)c1C	100	-9	84	88
O=S(=O)(c1ccccc1F)N1CCC(c2nc3ccccc3s2)CC1	99	-14	81	80
O=C(CS(=O)(=O)c1ccccc1)N(Cc1ccccn1)c1nc2ccccc2s1	103	12	112	101
COC(=O)C(C)N(C#N)c1nc(C)cc(C)n1 (configuration not stated)	104	1	98	88
COc1ccccc1C(C1=C(OC(C)=O)COC1=O)c1cc2c(cc1OC(C)=O)OCO2 (configuration not stated)	.	-4	119	88
Cc1c(Cl)cccc1NC(=O)n1ncc2c(C)cccc21	102	-15	101	88
COc1ccc(Br)c(C(=O)Nn2c(-c3cccc(C)c3)nc3ccccc3c2=O)c1	104	-8	.	.
COc1ccc(CCNC(=O)C(C)C2Sc3ccccc3N(Cc3ccccc3F)C2=O)cc1OC (configuration not stated)	102	-9	.	.
Cc1cc(N2C(=O)C3C4c5ccccc5C(c5ccccc54)C3C2=O)no1 (configuration not stated)	101	-8	106	95
COc1ccc(NC(=O)c2ccc(-c3nc(CSc4ccccc4)c(C)o3)cc2)c(OC)c1	111	.	106	115
CCCC1Nc2ccc(C(=O)O)cc2C2C=CCC12 (configuration not stated)	101	-33	92	87
CC(Oc1ccccc1C(=O)c1cc(C#N)c(=O)n(C2CCCCC2)c1)C(=O)N1CCOCC1 (configuration not stated)	.	15	89	99
O=C(O)C1CCC1C(=O)Nc1nnc(C2CC2)s1 (configuration not stated)	108	5	118	95
O=C(NCNC(=O)c1ccccc1)c1ccccc1	96	-5	100	97
CCc1ccc(N2CC(C(=O)O)CC2=O)cc1 (configuration not stated)	101	-20	112	88
Cc1ccc(OCC(=O)OCc2c(C)noc2C)cc1C	.	14	109	95
N#Cc1c(/N=C/c2cccnc2)sc2c1CCC2	87	-80	100	101
COc1ccc(Oc2ncnc3c2cnn3-c2ccccc2)cc1	100	-6	93	102
Cc1cc(/N=C\N(C)C)n2c(nc3ccccc32)c1C#N	124	-16	103	89
CC1CCN(C(=O)c2cc(-c3ccccc3)n[nH]2)CC1	99	-35	.	.
COc1cccc(Cc2nc3ccccc3nc2SCC(=O)N2CCCc3ccccc32)c1	99	.	118	104
S=c1nc(Cc2cccs2)[nH]c2ccccc12	107	-17	99	67
CCNc1nnc(-c2ccccc2)s1	105	-19	99	81
COCCNS(=O)(=O)c1cc(-c2nn3c(C)nnc3c3ccccc23)ccc1C	102	-7	109	90
CC1C(=O)N2CCCc3cc(S(=O)(=O)N4CCC(C(N)=O)CC4)cc1c32 (configuration not stated)	96	.	101	96

Full records from above. Order of values: GIV-Gai inh	HCMV UL50-53 inh	Sa growth 42C	Sa growth 42C second temp
Listed for CC1CCN(C(=O)c2cc(-c3ccccc3)n[nH]2)CC1 : 99	-35	.	.
Listed for Cc1cc(/N=C\N(C)C)n2c(nc3ccccc32)c1C#N : 124	-16	103	89
Listed for CCc1ccc(N2CC(C(=O)O)CC2=O)cc1 (configuration not stated) : 101	-20	112	88
Listed for CCNc1nnc(-c2ccccc2)s1 : 105	-19	99	81
Listed for COCCNS(=O)(=O)c1cc(-c2nn3c(C)nnc3c3ccccc23)ccc1C : 102	-7	109	90

Further results:
SMILES	GIV-Gai inh	HCMV UL50-53 inh	Sa growth 42C	Sa growth 42C second temp
COc1ccccc1N=c1scc(-c2ccc(S(=O)(=O)N3CCOCC3)cc2)n1C	108	-36	88	75
CC(=O)/C=C(\C)Nc1ccccc1S	104	-38	109	77
CCN(CC)CCOc1ccc2c(c1)C(=O)c1cc(OCCN(CC)CC)ccc1-2	105	-162	87	91
Cc1nnc(SCC#N)n1C	104	6	86	93
O=C(/C=C/c1ccc2c(c1)OCO2)NC(=S)NC1CCCC1	.	-7	74	70
CC1(C)CC2CC(C)(CN2C(=O)CN2CCN(C/C=C/c3ccccc3)CC2)C1 (configuration not stated)	.	-3	104	91
O=C(Cn1ncn2c(cc3ccccc32)c1=O)N1CCCCC1	97	-56	98	98
CCN1CCc2nc(N/C=C/C(=O)C(F)(F)F)sc2C1	.	-33	59	66
O=C(O)c1oc(C(=O)O)c(OCc2ccccc2)c1OCc1ccccc1	97	-17	100	90
COc1ccc(Cc2nc3ccccc3[nH]2)cc1OC	.	-20	82	82
Cc1ccc(=O)n(Cc2ccccc2)n1	98	-7	88	87
O=c1c(-c2ccccc2)c(N2CCCCC2)c1=O	115	-55	.	.
Cc1ccc(CNc2nc(-c3ccco3)nn2S(C)(=O)=O)cc1	102	13	105	91
O=C1OC(N2CCN(Cc3ccc4c(c3)OCO4)CC2)c2ccccc21 (configuration not stated)	114	-1	96	77
O=C(COCc1cc(-c2ccc3c(c2)OCO3)on1)NCc1ccccc1Cl	105	.	114	88
COc1ccc(NC(=O)c2ccc3c(c2)NC(=O)CO3)cc1OC	104	-5	92	75
Cn1c(=O)c2c(nc(N3CCOCC3)n2Cc2ccccc2)n(C)c1=O	105	-18	106	87
O=C(CSc1nc2sc3c(c2c(=O)[nH]1)CCCC3)NCCCN1CCOCC1	102	-24	.	.
O=C(COC(=O)C1CCN(S(=O)(=O)c2cccs2)CC1)NCc1ccccc1	.	-6	86	95
Cc1noc2c1C(c1ccc(Cl)cc1)C1=C(CC(c3ccccc3)CC1=O)N2 (configuration not stated)	107	-10	.	.
CC1CN(C(=O)CSc2nc(N)cc(=O)[nH]2)CC(C)O1 (configuration not stated)	.	-6	94	98
COc1ccc(NC(=O)CCS(=O)(=O)c2ccc3nc(C)sc3c2)cc1Cl	103	.	109	81
COc1ccc(NC(=O)CSc2nc(-c3ccc(OC)c(OC)c3)[nH]c2-c2ccc(C)cc2)cc1	103	18	109	87
O=C1C2C3c4ccccc4C(c4ccccc43)C2C(=O)N1c1ccncc1 (configuration not stated)	98	-3	92	93
Cc1cc(C)c(Nc2ncnc3c2cnn3C)c(C)c1	96	.	80	90
COc1cc(NC(=O)c2nc3ccccc3n(C)c2=O)cc(OC)c1OC	100	-111	106	91
O=C(CCc1nnc(-c2ccccc2)o1)OCc1c(F)cccc1Cl	.	-15	87	72
CNCc1cnn(Cc2ccccc2)c1	.	-17	83	96
CCOC(=O)c1ccc(N2CCN(c3cc(C)ccc3C)CC2)c(NC(=O)Nc2ccc(CC)cc2)c1	100	.	104	90
O=S(=O)(NCc1ccc2c(c1)OCO2)c1ccc2c(c1)OCCO2	102	-1	100	87
CC(=O)Nc1ccc(NC(=O)c2cc(-c3ccncc3)n[nH]2)cc1	95	-3	.	.
CCOC(=O)c1ccccc1NC(=O)c1sc(NC(=O)c2ccc3c(c2)OCO3)c(C(=O)OCC)c1C	109	-3	.	.
CC(C)CN(c1ccccc1)S(=O)(=O)c1nnc(NC(=O)c2ccco2)s1	104	0	82	54
CN(CCOC(=O)c1ccc2c(c1)OCCO2)C(C)(C)C	110	-9	.	.
COc1ccccc1-c1c(C)nn2c(N3CCCC3)cc(C)nc12	100	.	83	84
CC(NC(=O)c1nn(C)c2c1CSc1ccccc1-2)c1ccccc1 (configuration not stated)	101	-13	126	100
COC(=O)c1cnn2c(C)c(Cc3ccc(C)cc3)c(C)nc12	107	-31	108	88
CN(C)c1ccc(C(=O)N2CCCc3ccccc32)cc1	105	-7	94	84
O=S(=O)(c1ccc(Cl)cc1)c1nc(-c2cccc(Br)c2)oc1NCc1ccccc1	105	-18	108	88
Cc1cc(N)cc(C(=O)O)c1O	106	-9	74	46
CCCCCCNC(=O)c1c[nH]c2ccc(S(=O)(=O)N(C)c3ccc(C(C)C)cc3)cc2c1=O	100	.	114	88
Cc1ccccc1CN1C(=O)c2ccccc2S(=O)c2ccc(C(=O)N3CC(C)CC(C)C3)cc21 (configuration not stated)	101	-30	.	.
CCc1ccc(-c2nc(CN3CCC(C(=O)NCCc4ccccc4)CC3)c(C)o2)cc1	106	-5	93	86
CCOC(=O)c1cccc(NC(=O)N2CCC(CN3CCCCC3)CC2)c1	104	.	93	89
CC(C)CCNC(=O)C1CCCN(S(=O)(=O)c2cccc3nsnc23)C1 (configuration not stated)	103	-90	88	89
Cc1cc(C(=O)N2CCN(C(c3ccccc3)c3ccccc3)CC2)no1	101	.	91	82
c1ccc(OCc2nnc3sc(-c4ccncc4)nn23)cc1	113	-32	.	.
